# Ecoli growth – inhibitors of Escherichia coli growth. OD600, 23 h; active compounds read low. OD600 absorbance (test concentration not listed). 330,000 tested, 0.21% active. AID 1053175;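 active means OD600 absorbance below the run mean of sample wells minus 3.6 SD, in any replicate, cut at about 0.56 in these data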;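 further: stock transfer was 300 nL into about 60 µL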
# Vif A3G – inhibitors of Vif binding to APOBEC3G peptide, primary screen, biochemical, TR-FRET, GST-Vif 1-94, biotin-A3G peptide, dose response retest (AID 1117319); TR-FRET GST-Vif / biotin-A3G peptide binding; higher % means a stronger effect; test concentration not given here; strong numbers were not always called active; inhibition, %, or IC50 in µM where a hit was titrated; 260,000 tested, 0.57% active;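 active means above the screen mean plus three standard deviations and confirmed in dose response; inconclusive means results disagree or hit not tested in dose response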;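 further: Vif residues 1-94 fused to GST binding biotinylated APOBEC3G peptide 110-148; 0% = full assay without inhibitor and 100% = GST in place of GST-Vif; retest series ran down from 100 µM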
# HNF4A DNA FP – change in binding of human HNF4 alpha to DNA; P41235; HNF4a-FITC DNA binding, fluorescence polarization, 1 h; activity change, % at 10 µM; 360,000 tested, 0.3% active; AID 1224865; in the data active means activity change above about 30%, passing the limit was not always enough;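 further: controls were the assay level and a saturating level of protein; the project sought stronger binding though the title names inhibitors; some compounds called inactive have numbers as strong as hits; positive values seem to mean higher polarization but the record does not say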
# Target sequence (P41235 whole entry, looked up): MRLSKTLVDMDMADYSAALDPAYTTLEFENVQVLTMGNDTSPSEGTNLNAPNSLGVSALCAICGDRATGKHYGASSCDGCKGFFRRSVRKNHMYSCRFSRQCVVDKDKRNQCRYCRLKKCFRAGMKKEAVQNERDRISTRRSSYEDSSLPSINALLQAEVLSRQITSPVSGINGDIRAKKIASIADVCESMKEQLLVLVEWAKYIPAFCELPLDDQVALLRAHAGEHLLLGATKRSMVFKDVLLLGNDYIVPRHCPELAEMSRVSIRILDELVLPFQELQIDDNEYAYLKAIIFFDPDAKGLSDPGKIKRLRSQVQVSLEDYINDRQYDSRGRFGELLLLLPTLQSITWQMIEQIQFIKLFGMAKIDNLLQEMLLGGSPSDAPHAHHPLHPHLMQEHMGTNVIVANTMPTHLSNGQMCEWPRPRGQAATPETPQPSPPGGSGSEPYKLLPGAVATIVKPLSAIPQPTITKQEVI
# Ecoli rRNA inh – inhibits bacterial ribosomal RNA function over humanized ribosomes | E. coli WT GFP vs humanized-ribosome RFP mutants, fluorescence, 24 h; active compounds read low; DMSO median 0, no signal -100 | GFP signal change (wild-type ribosome), % (no concentration beside the values) | 350,000 tested, 1.6% active | AID 720706;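 active means significant combined selectivity score with lowered wild-type GFP, culture density cut under 30%, mutant RFP and density less affected; inactive means any of these conditions unmet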; further: one replicate is shown; some compounds called inactive have numbers as strong as hits
# MLL AF4-AF9 inh – inhibitors of human MLL-AF4/AF9 interaction; P42568; AlphaScreen, biotin-AF4 peptide binding to FLAG-AF9; inhibition, % at 10 µM; 350,000 tested, 0.47% active;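 active means every replicate reaching a set inhibition limit, whatever the replicate mean, cut at about 25% in these data; inconclusive means mean inhibition reaches that limit but some replicates miss it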;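 further: 0% = plate neutral control median and 100% = total signal loss; the record names both 10 and 1 µM as test concentration; the first replicate is given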
# FGF22 binding – binders of recombinant human FGF22 by thermal shift. SYPRO orange fluorescence; percent of sucrose octasulfate shift, DMSO zero. calls only at 9.99 µM. 340,000 tested, 1.5% active. AID 651658;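 active means melting point raised past a set limit in the mean and every replicate; inconclusive means no clear call; three in four hits are not shown here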
# Target sequence (Q9HCT0 whole entry, looked up): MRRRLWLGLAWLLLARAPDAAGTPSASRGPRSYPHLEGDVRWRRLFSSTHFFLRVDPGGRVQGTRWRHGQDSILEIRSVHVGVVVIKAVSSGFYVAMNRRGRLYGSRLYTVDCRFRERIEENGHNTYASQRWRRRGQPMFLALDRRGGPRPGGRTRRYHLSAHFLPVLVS
# ALR H2O2 inh – inhibitors of human sulfhydryl oxidase ALR | AID 485317 | 290,000 tested, 3.8% active | inhibition, % (concentration not given with the values) | purified ALR, DTT oxidation, H2O2 HRP-luminol luminescence | P55789;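 active means mean and each replicate at 75% or more; inconclusive means only one of the two met; inactive means neither met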;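 further: stock transfer was 7.5 nL into about 7.5 µL; 0% = neutral wells and 100% = wells with inactivated enzyme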
# Target sequence (P55789 whole entry, looked up): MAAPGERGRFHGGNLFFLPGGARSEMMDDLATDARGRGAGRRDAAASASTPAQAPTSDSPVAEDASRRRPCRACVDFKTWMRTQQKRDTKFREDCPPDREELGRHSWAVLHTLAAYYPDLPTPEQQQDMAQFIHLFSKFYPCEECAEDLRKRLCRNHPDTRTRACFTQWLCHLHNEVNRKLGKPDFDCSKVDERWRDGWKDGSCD
# Ecoli rRNA inh OD600 – also measured in Ecoli rRNA inh; calls as there; OD600 change, %; measured here: OD600 growth;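 optical density of the mix in the first replicate; 0 = DMSO median and -100 = no signal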
# Ecoli rRNA inh RFP – also measured in Ecoli rRNA inh; calls as there; RFP signal change, %; measured here: RFP humanized mutant strains;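 first replicate; 0 = DMSO median and -100 = no signal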
# Numbers without * were called inactive; i = inactive; ? = inconclusive; / = no result given. These rows are one share of the data; rates above refer to the full screens.
Ecoli growth	Vif A3G	HNF4A DNA FP	Ecoli rRNA inh	Ecoli rRNA inh OD600	Ecoli rRNA inh RFP	MLL AF4-AF9 inh	FGF22 binding	ALR H2O2 inh	SMILES
0.726	-3.9%	1.3	-16.8	-31.8	-0.9	-1.6	i	-2.4	COc1ccc2cc(CCNC(=O)c3c(-c4ccccc4Cl)noc3C)c(=O)[nH]c2c1
0.693	-12.2%	1.9	11.0	-3.6	-1.0	7.4	i	6.2	COc1ccc2[nH]c(C(O)(Cc3cccnc3)Cc3cccnc3)cc2c1
0.672	19.1%	-7.0	/	/	/	/	/	1.3	Cc1ccc(C(OC(=O)c2ccco2)C(=O)NC2CCCCC2)cc1 (configuration not stated)
0.691	-3.1%	1.7	-2.7	5.7	-2.1	-3.3	i	/	CCOC(=O)C1=CN(Cc2cccc(F)c2)S(=O)(=O)N(C)C1CCc1ccccc1 (configuration not stated)
0.71	/	2.5	-9.0	-4.7	6.6	-2.3	i	-8.5	COc1ccc(CNC(=O)CN(c2ccccc2OC)S(=O)(=O)c2cccs2)cc1
/	/	0.7	/	/	/	1.7	i	1.9	CC1c2cc3c(cc2CCN1CC(=O)Nc1ccccc1)OCCCO3 (configuration not stated)
0.652	/	2.2	1.5	0.9	-1.9	2.2	i	0.2	N#C/C(=C/c1cccc(O)c1)C(=O)NCc1ccc(Cl)cc1
/	/	/	-2.9	-0.3	2.9	-1.2	i	/	CCC(=O)N1[C@H](CNC(C)=O)[C@H](c2ccc(-c3ccc(F)cc3)cc2)[C@@H]1CO
0.665	/	29.6	-0.6	15.4	3.3	-1.4	i	0.7	CN1C(=O)/C(=C/c2ccc(OC(=O)c3ccco3)cc2)SC1=S
/	/	/	1.2	-2.6	-2.7	-0.3	i	/	C[C@@H]1CN([C@H](C)CO)C(=O)c2cccc(NS(=O)(=O)c3ccccc3)c2O[C@H]1CN(C)Cc1ccc(C(=O)O)cc1
0.727	6.6%	1.2	/	/	/	/	/	-12.5	CCOC(=O)c1ccc(NC(=O)CN2C(=O)C(=O)N(CC(C)C)C2=O)cc1
0.751	-7.3%	-6.4	/	/	/	/	/	-1.4	O=C(Nc1ccc(-c2nnc(-c3ccccc3)o2)cc1)c1ccc(Br)o1
0.705	/	2.5	-6.3	-12.8	-0.3	6.1	i	0.7	O=C(NCCc1ccc(Cl)cc1)C1CCC(=O)N(C2CCCCCC2)C1 (configuration not stated)
0.644	-2.0%	1.8	/	/	/	/	/	-12.9	COc1cccc(CN(C)C(=O)c2ccc(S(=O)(=O)N3CCCC3)cc2)c1OC
/	/	/	-10.0	-5.8	3.6	0.7	i	/	O=C(Nc1cc(F)ccc1F)N[C@H]1C=C[C@@H](CC(=O)N2CCc3ccccc3C2)O[C@@H]1CO
0.686	-0.7%	0.9	/	/	/	/	/	-7.7	COc1ccc(-c2c(C(=O)O)nc3ccccc3c2C(=O)O)cc1
/	/	/	0.4	-4.2	-3.5	1.2	i	/	COCC(=O)N1CC2(CN(Cc3ccccc3)C2)c2c([nH]c3cc(OC)ccc23)[C@H]1CO
/	12.5%	-1.5	9.7	16.8	1.3	-3.4	i	/	Cc1ccc(S(=O)(=O)NN=C2C(=O)C3CCC2C3Cl)cc1 (configuration not stated)
0.646	-4.6%	-2.1	-2.2	7.2	3.5	1.9	i	/	Cc1cccc(C)c1NC(=O)CNC(=O)c1c(-c2ccccc2)noc1C
0.704	/	0.5	1.0	-0.1	-1.0	-2.2	i	-1.3	CCOc1ccc(S(=O)(=O)N2CCC(C(=O)NCc3ccccn3)CC2)cc1C
/	/	/	1.9	0.7	0.7	0.3	i	/	CNC(=O)C[C@H]1CC[C@H]2[C@H](COc3ccc(NS(=O)(=O)c4cccc(F)c4)cc3C(=O)N2C)O1
/	/	/	0.7	-2.1	10.5	11.7	i	/	C[C@@H]1CCCCO[C@@H](CN(C)CC2CCCCC2)[C@H](C)CN([C@H](C)CO)C(=O)c2cc(NS(=O)(=O)c3cccs3)ccc2O1
0.665	?	-3.4	/	/	/	/	/	0.9	COc1ccc(OCCNC(=O)C(c2ccccc2)c2ccccc2)cc1
/	/	/	-0.8	-3.7	-2.6	2.6	i	/	O=C(c1ccccc1)N1CC(=O)N2[C@H](CO)[C@H](c3ccc(C#CC4CC4)cc3)[C@H]2C1

# Sorted by the number under Ecoli rRNA inh OD600 (rising): 3 of the compounds above
molecule	Ecoli growth	Vif A3G	HNF4A DNA FP	Ecoli rRNA inh	Ecoli rRNA inh OD600	Ecoli rRNA inh RFP	MLL AF4-AF9 inh	FGF22 binding	ALR H2O2 inh
O=C(NCCc1ccc(Cl)cc1)C1CCC(=O)N(C2CCCCCC2)C1 (configuration not stated)	0.705	/	2.5	-6.3	-12.8	-0.3	6.1	i	0.7
C[C@@H]1CCCCO[C@@H](CN(C)CC2CCCCC2)[C@H](C)CN([C@H](C)CO)C(=O)c2cc(NS(=O)(=O)c3cccs3)ccc2O1	/	/	/	0.7	-2.1	10.5	11.7	i	/
CNC(=O)C[C@H]1CC[C@H]2[C@H](COc3ccc(NS(=O)(=O)c4cccc(F)c4)cc3C(=O)N2C)O1	/	/	/	1.9	0.7	0.7	0.3	i	/

# Next entries:
Ecoli growth	Vif A3G	HNF4A DNA FP	Ecoli rRNA inh	Ecoli rRNA inh OD600	Ecoli rRNA inh RFP	MLL AF4-AF9 inh	FGF22 binding	ALR H2O2 inh	SMILES
0.655	-1.6%	-3.1	2.7	-11.9	-1.4	4.4	i	/	CC(Sc1nnc(Cc2cccs2)n1C1CC1)C(=O)NC1CCS(=O)(=O)C1 (configuration not stated)
/	/	/	0.2	1.5	0.4	-7.5	i	/	Cc1noc(C)c1S(=O)(=O)Nc1ccc2c(c1)C(=O)N([C@H](C)CO)C[C@@H](C)[C@@H](CN(C)S(=O)(=O)c1c(C)noc1C)OCCCC[C@H](C)O2
0.705	-0.2%	-5.8	-2.7	-6.4	8.8	-2.3	i	-1.3	Cc1cc(Cl)ccc1OCCCC(=O)N1CCN(S(=O)(=O)c2ccccc2)CC1
0.703	-1.2%	1.4	-24.6*	-0.8*	6.2*	-5.4	i	83.9*	N#Cc1c2n(c3c(=O)n(Cc4ccccc4)cnc13)CCCC2
0.701	2.5%	-1.1	-4.1	-13.7	-0.7	-0.5	i	-2.9	O=C(Nc1ccccc1F)C1CCCN(S(=O)(=O)c2ccccc2)C1 (configuration not stated)
0.69	2.7%	-1.8	5.2	13.1	0.5	-0.7	i	-3.6	O=C(NC1CCCC1)C(c1ccccn1)N(C(=O)c1csnn1)c1ccccc1F (configuration not stated)
/	5.1%	-0.8	-4.6	-5.2	2.8	4.2	i	36.7	O=[N+]([O-])c1ccccc1OC/C(=N\O)c1ccccc1
0.673	0.3%	-1.2	/	/	/	/	/	-2.7	COC(=O)c1cccc(COC(=O)c2cccnc2SC)c1
0.76	1.5%	-0.3	/	/	/	/	/	-1.6	Cc1ccc(C(=O)CN(C(=O)c2ccc(Cl)c(Cl)c2)N2C(=O)C3CCCCC3C2=O)cc1 (configuration not stated)
/	28.8%	-29.5	-4.8	6.5	1.3	-10.2	i	/	O=C1NC2c3c(Cl)sc(Cl)c3C(=O)C2O1 (configuration not stated)
/	-2.0%	3.4	-7.2	-2.6	-5.4	-2.5	i	-0.3	Cc1cccc(C(=O)O/N=C(\c2ccccc2)c2cccnc2)c1
0.671	/	1.2	1.5	2.2	-0.3	-3.2	i	0.4	Cc1cc(=O)n2nc(N3CCCC(C(=O)NCc4ccccc4Cl)C3)sc2n1 (configuration not stated)
0.69	-0.8%	2.1	23.0	14.1	4.7	-0.7	i	-8.5	CN(C)/C=C/C(=O)C(F)(F)F
0.689	-2.8%	-2.6	/	/	/	/	/	-47.6	O=C(NCCCN1CCOCC1)c1sc2cc([N+](=O)[O-])ccc2c1Cl
0.677	-1.4%	-0.7	-1.5	7.1	-4.1	-1.4	i	3.3	Cn1ncc2c(Nc3cc(Cl)cc(Cl)c3)ncnc21
0.677	5.7%	-1.0	/	/	/	/	/	2.9	O=C(COC(=O)c1ccccc1NC(=O)c1ccco1)NCc1ccc2c(c1)OCO2
0.649	-4.6%	-1.2	6.0	16.8	0.2	15.7	i	-9.6	C=CCn1c(SCC(=O)N(CC)C2CCS(=O)(=O)C2)nnc1-c1ccccc1 (configuration not stated)
0.719	-0.5%	1.9	/	/	/	/	/	2.7	CC(C)CCNC(=O)c1ccc2c(c1)ncn2C1CCCCC1
0.659	-4.1%	-3.0	-20.9*	-9.2*	5.2*	-8.0	i	-20.6	O=C(Cc1c(F)cccc1Cl)N(Cc1ccccc1)c1ccccn1
/	/	/	-13.3	-43.0	-1.6	19.2	i	/	C[C@H](CO)N1C[C@H](C)[C@H](CN(C)Cc2ccc(Cl)c(Cl)c2)Oc2ccc(N(C)C)cc2CC1=O
/	/	/	-1.9	-10.4	-0.1	12.9	i	/	Cc1noc(C)c1NC(=O)N(C)C[C@@H]1Oc2cc(C#CCC(C)C)ccc2S(=O)(=O)N([C@@H](C)CO)C[C@H]1C
0.686	/	-1.8	/	/	/	-5.5	i	8.3	COc1ccc(OCc2nnc(SCC(=O)NCC3CCCO3)n2N)cc1 (configuration not stated)
0.709	0.2%	6.0	1.5	7.9	1.1	1.1	i	-2.2	OCCNNC(=S)NC1CC2C=CC1C2 (configuration not stated)
0.66	-1.4%	-5.3	11.4	4.1	-0.2	4.2	i	-10.2	Cc1ccc(NC(=O)NC(=O)COc2c(F)c(F)cc(F)c2F)c(C)c1
0.689	1.4%	-0.6	12.1	14.8	3.1	4.3	i	-6.3	CCOC(=O)/C=C1/N(C)c2ccccc2C1(C)C
/	/	-1.8	-0.1	5.8	-0.3	5.0	i	3.8	Cc1cc(C(=O)N/N=C/c2c(C)nn(-c3ccccc3)c2C)c(C)o1
0.668	4.8%	0.4	-10.6	-2.7	-9.0	9.2	i	-16.0	COc1ccc2c(c1)CCc1c(C(=O)N3CCOCC3)noc1-2
0.631	/	-4.1	8.4	11.0	5.0	/	i	8.8	C=CCC1CCCCC12NC(=O)N(c1ccccc1)N2 (configuration not stated)
/	/	/	-2.1	1.2	-1.3	3.1	i	/	C[C@H](CO)N1C[C@H](C)[C@@H](CN(C)S(=O)(=O)c2ccc(F)cc2)Oc2ccc(NC(=O)Nc3ccc4c(c3)OCO4)cc2CC1=O
0.68	-1.8%	2.0	/	/	/	/	/	-1.9	CCCNC(=O)CN(C)C(=O)c1n[nH]c2ccccc12
0.707	-403.7%	/	/	/	/	/	/	-16.7	CC(C)c1ccc(-c2c(C#N)c(N)nc(SCC(=O)N3CCCCCC3)c2C#N)cc1
/	1.5%	1.4	-6.9	3.8	-0.4	-3.9	i	-8.8	COc1ccc(/C=C/C(=O)ONC2=NCCCCC2)cc1OC
0.765	25.4%	0.9	/	/	/	/	/	26.2	CCCCOC(=O)C1=C(C)NC2(O)c3ccccc3C(=O)C12O (configuration not stated)
/	/	-1.8	1.7	8.0	0.8	8.6	i	/	Cc1cc(C)c(CN2CCN(CCCn3ccc(NC(=O)OCc4ccccc4)nc3=O)CC2)c(C)c1
0.709	/	-3.0	4.4	0.5	2.2	-15.0	i	-13.7	O=C1CCC(C(=O)N2CCC(CCO)CC2)CN1Cc1ccc(Cl)cc1 (configuration not stated)
0.623	50.3µM*	1.2	-17.1	-14.0	4.6	-8.8	i	66.3	N#C/C=C\Oc1ccc(Cl)cc1N
0.709	-2.4%	0.7	/	/	/	/	/	/	Cc1ccc(/C=C/C(=O)NC(=S)Nc2ccccc2C(=O)NC2CCCCC2)cc1
0.639	2.7%	-1.2	4.9	5.5	0.0	-0.8	/	/	COc1ccccc1CNC(=O)COn1nnc2ccc(S(=O)(=O)N3CCOCC3)cc21

# Assay outcomes (PubChem)
